# Sa growth inh – S. aureus growth inhibition; S. aureus RN4220 growth, OD600, 20 h, 42 °C; hits give low values; 0.53% of 170,000 active; relative growth, % (test concentration not listed);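 active = growth at 42 °C up to 50% and 20 or more points under that at 30 °C, or under 10% at both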;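 note: 300 nL library stock went into each well; scaled to the means of positive and negative controls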
# GIV Gai3 FP – blocks GIV peptide binding to rat Galpha-i3. P08753. Galpha-i3/FITC-GIV peptide fluorescence polarization, 90 min; hits give low values; scaled: aluminum fluoride 0%, vehicle 100%. percent of control (FP), % (concentration not given with the values). 0.42% of 210,000 active. AID 1224905;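 active = replicate mean at 85% of control or lower, very high polarization wells dropped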;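 note: wells of about 15 µL received 100 nL stock; the first replicate is given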
# Target sequence (P08753 whole entry, looked up): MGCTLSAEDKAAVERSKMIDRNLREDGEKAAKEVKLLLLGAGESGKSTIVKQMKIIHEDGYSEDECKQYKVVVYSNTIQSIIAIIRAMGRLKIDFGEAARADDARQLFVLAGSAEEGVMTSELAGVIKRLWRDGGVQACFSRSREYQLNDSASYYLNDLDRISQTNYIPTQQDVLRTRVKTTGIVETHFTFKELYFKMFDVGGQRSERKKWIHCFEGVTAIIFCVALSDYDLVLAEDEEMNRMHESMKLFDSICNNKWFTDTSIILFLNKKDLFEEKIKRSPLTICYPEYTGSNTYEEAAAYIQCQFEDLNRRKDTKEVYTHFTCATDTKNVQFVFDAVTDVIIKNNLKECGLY
# HCMV NEC inh – cytomegalovirus nuclear egress complex inhibition | HTRF UL50-UL53 interaction, normalized percent inhibition | inhibition, % (no concentration beside the values) | 0.15% of 190,000 active;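 active = both replicates at 50% or more, plus weaker picks with an unusually low signal ratio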;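 note: stock transfer was 100 nL into about 20 µL; 0% = negative control wells and 100% = wells with untagged competitor protein; inactives centre near -12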
# Sa growth inh second temp – also measured in Sa growth inh; calls as there; relative growth, %; measured here: growth at 30 °C;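 optical density after 20 h as mean of two plates; 100% = untreated growth and lower means inhibition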
# * = called active by the depositor; nt = no result given; & = joins results of further samples.
# Values in the order – Sa growth inh, Sa growth inh second temp, GIV Gai3 FP, HCMV NEC inh
Cn1c(SCC(=O)N2CC(=O)Nc3ccccc32)nnc1C(F)(F)F
→ 85, 93, nt, -12
CC1(C)Cc2cccc(OCC(=O)Nc3cccnc3)c2O1
→ 99, 95, nt, -21
COc1ccc(CN(C)C(=O)Cc2c[nH]c3ccccc23)c(OC)c1OC
→ 107, 87, nt, -7
Cc1nnc2c(N3CC=C(c4ccccc4)CC3)nc3ccccc3n12
→ 84, 77, 103, -47
O=C(Nc1ccc(OC(=O)c2sc3ccccc3c2Cl)cc1)c1sc2ccccc2c1Cl
→ nt, nt, 106, 0
Cc1cc(C)cc(-n2c(SCc3cn4ccsc4n3)nc3ccccc3c2=O)c1
→ 91, 89, nt, -13
O=C(CCc1nnc2n(Cc3ccccc3)c(=O)c3ccccc3n12)NCc1ccccn1
→ 95, 85, 100, -18
O=C(O)c1ccc(-n2c(/C=C\c3cc(Br)ccc3O)nc3ccccc3c2=O)cc1
→ nt, nt, 106, -10
COc1ccc(OC)c(C2Nc3c(C)cc(C)cc3-c3cc(C)nn32)c1 (stereo not drawn)
→ 104, 82, 100, 12
CC(C)CC(=O)NCC1(N(C)C)CCCCC1
→ 105, 87, 106&97, -30&-20
CC(=O)Nc1ccc(C2Nc3ccc(C)cc3O2)cc1 (stereo not drawn)
→ 89, 55, 106, -17
O=C(Nc1ccc(S(=O)(=O)N2CCOCC2)cc1)c1cc2ccccc2o1
→ 113, 76, 109, nt
Cc1cc2nc(-c3ccc(OCc4ccccc4Cl)cc3)cc(C(F)(F)F)n2n1
→ 57, 66, 103, -23
CCCCCC(=O)N1c2ccccc2NC2=C(C(=O)CC(c3cccc([N+](=O)[O-])c3)C2)C1c1ccco1 (stereo not drawn)
→ nt, nt, 106, 7
O=C(CSc1nc2nc[nH]c2c(=O)[nH]1)N1CCCC1
→ nt, nt, 101, -12
O=C1Nc2ccccc2C12CC(c1ccc(F)cc1)=NC(=S)N2c1ccc(F)cc1 (stereo not drawn)
→ 105, 90, nt, -2
O=C(NCc1cccs1)c1nc2ncccn2n1
→ 110, 100, 106, -1
CC(C)NC(=S)N1CCN(c2ccc3nnc(-c4ccc(F)cc4)n3n2)CC1
→ 103, 87, 101, nt
CCOC(=O)c1c(NC(=O)c2cc3cc(OC)ccc3oc2=O)sc2c1CCCC2
→ nt, nt, 103, -1
O=C(CN1C(=O)c2ccccc2S1(=O)=O)N1CCC(Cc2ccccc2)CC1
→ 119, 88, nt, -5
O=C1CC(=O)Nc2cc(S(=O)(=O)Nc3cccc(Br)c3)ccc2N1
→ 88, 86, 101, nt
CCCSc1nnc(-c2ccc(Cl)cc2)n1Cc1ccco1
→ 80, 87, nt, -16
Cc1ccccc1NCc1nc2ccccc2n1CCOc1ccccc1
→ 95, 94, 108, -6
Cc1ccc(C(=O)c2[nH]c(=O)c3ccccc3c2O)c(C)c1
→ 97, 86, 81*, 60*
COc1cccc(N2C(=O)Nc3ccccc3C2(O)C(=O)NC2CCCCCCC2)c1 (stereo not drawn)
→ 90, 98, 103, -5
COc1ccc(NC(=O)C2CCCCC2)cc1CN1CCn2c(nc3ccccc32)C1
→ nt, nt, 98, -5
Cc1cc(=O)n2nc(N3CCCC3C(=O)NCc3ccc4c(c3)OCO4)sc2n1 (stereo not drawn)
→ nt, nt, 163, -13
CCOC(=O)c1cnc(SCC(=O)Nn2c(C)nc3sc(C)cc3c2=O)nc1N
→ 92, 95, 107, -9
CCOc1ccccc1CNC(=O)c1cccc(NC(=O)c2nsc3ccccc23)c1
→ 108, 95, 106, nt
CCC(C)NC(=O)c1nn2c(c1Cl)NC(c1ccc(OC)cc1)CC2C(F)(F)F (stereo not drawn)
→ 81, 95, 104, nt
Fc1ccc(-n2ncc3c(N4CCC(Cc5ccccc5)CC4)ncnc32)cc1
→ 91, 84, 102, nt
O=C(Cc1ccccc1)c1ccc(O)cc1
→ 92, 87, 96, -13
CCC(=O)N1CCc2cc(Br)cc(S(=O)(=O)CCC(=O)NCCc3ccccc3)c21
→ 95, 95, 101, -12
Cc1c(S(=O)(=O)c2ccc(Cl)cc2)csc1S(=O)(=O)N1CCCCC1
→ 96, 92, 105, -13
CCn1cc(C(=O)OC)c(=O)c2cc(C(F)(F)F)ccc21
→ 93, 110, 99, 1
CC(NCc1ccc(Cl)cc1)=C(C#N)C#N
→ 100, 105, nt, -4
CCOC(=O)c1c(C)n(-c2ccc(OCC)cc2)c2ccc(OC(=O)COc3ccccc3)cc12
→ nt, nt, 102, -21
CCN(Cn1ncn(C)c1=S)C1CCCCC1
→ 100, 94, nt, -51
Cc1ccccc1CNC(=O)c1cc2cccc3c2n1CCO3
→ 114, 85, 110, -34
Cc1sc2nc(COC(=O)c3ccc(S(=O)(=O)NCc4ccco4)cc3)[nH]c(=O)c2c1C
→ 113, 102, nt, 12
CC(C)Oc1ccc(CNS(=O)(=O)c2ccc3c(c2)C(C)(C)C(=O)N3C)cc1
→ 86, 84, 95, nt
N#Cc1cccc(OCC(=O)C23CC4CC(CC(C4)C2)C3)c1
→ 83, 88, nt, -19
CCCCCCc1c(O)nc(SCCN(CC)CC)n(-c2ccccc2)c1=O
→ 96, 94, 98, -8
FC(F)(F)c1cccc(NC(=S)N2CCCCC2)c1
→ 117, 105, 107, -6
O=C(CSc1nc(-c2ccccc2)nc2c1CCCC2)N/N=C/c1ccco1
→ 95, 84, 96, -23
COc1ccc(OC)c(NC(=O)CSC2=Nc3ccccc3C3=NC(CCC(=O)NCc4ccco4)C(=O)N23)c1 (stereo not drawn)
→ 86, 81, 101, nt
COc1ccc2nc(NC(=O)c3ccc(C)cc3)sc2c1
→ 97, 84, nt, -25
CC1(C)C(=O)N(CC(=O)Nc2cccc(F)c2)c2ccc(S(=O)(=O)N3CCCC3)cc21
→ nt, nt, 110, -6
Cc1ccc(C(=O)CN2C(=O)CCC2=O)cc1
→ 80, 82, 91, -25
CC(=O)Nc1cccc(N2CCn3c(nc4ccccc43)C2)c1
→ nt, nt, 104, 20

# (further entries)
# Values in the order – Sa growth inh, Sa growth inh second temp, GIV Gai3 FP, HCMV NEC inh
O=C(NCC(=O)N1CCC(c2nc(-c3ccccc3)no2)CC1)c1ccccc1
→ nt, nt, 101, -16
Clc1ccc(-c2nnc(CN(CCOc3cc(Cl)ccc3Cl)C3CC3)o2)cc1
→ 79, 80, nt, -11
CCc1cc(C(=O)OCC(=O)Nc2ccc(C)cc2C)c2ccccc2n1
→ 109, 96, nt, -17
COc1cccc(-n2c(-c3ccc(Cl)cc3)cc3c2CC(C)(C)CC3=O)c1
→ 98, 88, 99, -24
COc1ccccc1NC(=O)Cn1nc(C)n2cccc2c1=O
→ 104, 97, 101, 3
CC(C(=O)Nc1ccc(C(N)=O)cc1)N(C)Cc1cccs1 (stereo not drawn)
→ 85, 85, nt, -38
CC1=CC(C)C2C(=O)N(CCCN(C)C)C(=O)C2C1 (stereo not drawn)
→ 100, 91, 96, -6
COc1ccc(CNC(=O)c2cc(-c3ccc(OC)cc3)nc3n[nH]c(-c4cccc([N+](=O)[O-])c4)c23)cc1
→ 103, 66, 104, nt
COc1ccc2c(c1)Cc1sc(NC(=O)c3ccccc3)nc1-2
→ 93, 84, 109, 2
COc1ccc(C2=NS(=O)(=O)N(C)C(C(=O)N(C)Cc3ccccc3)=C2)cc1OC
→ 103, 81, 107, -44
O=C1/C(=C\c2ccccn2)SC(=S)N1CCc1ccc(Cl)cc1
→ 87, 81, 105, -7
Cc1cccc(OCc2nc(C#N)c(NCCc3ccccc3)o2)c1
→ 97, 77, 106, nt
COc1ccc(-c2cc(C(F)(F)F)c(C#N)c(SCC(=O)Nc3cccc(C)c3)n2)cc1
→ 106, 90, 103, -17
COc1ccccc1NC(=O)CSc1nncn2c1cc1sccc12
→ 113, 99, 109, nt
COc1ccc(NC(=S)NC(C)(C)C)cc1
→ 122, 90, 102, -3
COc1cc(C)c(S(N)(=O)=O)c(S(N)(=O)=O)c1
→ 98, 93, 96, 12
CN(C)c1ccc(/C=N/N2C(=O)CNC2=O)cc1
→ 101, 99, nt, -41
CN1CCN(C(=O)c2cnn(-c3ccccc3)c2NC(=O)c2ccccc2)CC1
→ 96, 90, 98, 1
CN(Cc1ccccc1)C(=O)COC(=O)c1ccc(O)cc1
→ 112, 103, nt, 28
CN(CC(=O)N1CCN(c2ccccn2)CC1)c1nn2c(NC(C)(C)C)c(-c3ccccc3)nc2s1
→ nt, nt, 100, 13
CC(=O)c1ccc(N2C(=O)C3C4C=CC(CC4)C3C2=O)cc1 (stereo not drawn)
→ nt, nt, 97, -9
O=C(CCSc1ccc(Br)cc1)Nc1ccc(F)cc1
→ 68, 93, nt, -11
COc1ccccc1NC(=O)c1c(NCc2ccc(C)o2)sc2c1CCC(C)C2 (stereo not drawn)
→ 87, 92, 105, nt
NS(=O)(=O)c1ccc(-n2nncc2-c2ccccc2)cc1
→ 123, 103, nt, 9
CN(CC(=O)Nc1ccccc1SCC#N)c1ccccc1
→ 89, 84, nt, -16
Cc1cc(C(=O)NC(C)(C)C)on1
→ 100, 96, 102, nt
CC(C)(C)OC(=O)N1CCc2[nH]ncc2C1
→ 112, 96, 109, -10
Cc1ccnc(Nc2nc3ccccc3o2)n1
→ 109, 88, 102, nt
CN(C)/C=C/C(=O)c1ccc2c(c1)CCO2
→ 115, 96, 106, -4
O=C(Nc1ccccc1I)c1ccc(Br)o1
→ 80, 92, nt, 4
C=CCC(c1ccncc1)/[N+]([O-])=C\c1ccccc1 (stereo not drawn)
→ 90, 75, 100, -18
CCn1c(=O)cc(OCC(=O)NCCCN2CCCC2=O)c2ccccc21
→ 82, 42, 99, nt
CCCN1COc2ccc3c(-c4ccccc4)cc(=O)oc3c2C1
→ 86, 83, 102, -138
COCCNC(=O)c1cc[n+]([O-])cc1
→ 90, 85, nt, -35
CCN(CC)CCn1c2c(c(SCC(=O)Nc3cccc(C(F)(F)F)c3)nc1=O)CCC2
→ 84, 99, 96, nt
COc1ccc(N(CN2C(=O)c3ccccc3C2=O)C(=O)c2ccccc2)cc1
→ 103, 78, 101, nt
CCNS(=O)(=O)c1cccc(S(=O)(=O)c2ccc(Cl)cc2)c1
→ 109, 99, 105, 2
Cc1ccn2cc(CCNC(=O)C3CCCCC3)nc2c1
→ 92, 89, 100, nt
Cc1ccc(NCN2C(=O)C3CC=CCC3C2=O)cc1Cl (stereo not drawn)
→ 95, 84, 102, -16
O=C(Nc1ccc(Cc2ccncc2)cc1)C1CC1
→ 101, 90, nt, -4
Cc1ccccc1C1C2=C(CC(c3ccccc3O)CC2=O)Nc2onc(C)c21 (stereo not drawn)
→ nt, nt, 107, -7
COc1ccc(-c2cc(C)nc3c(-c4ccc(OC)c(OC)c4)c(C)nn23)cc1
→ 108, 85, 108&104, -9&-38
O=C(Nc1ccc(-c2nc3ccccc3o2)cc1)c1ccccc1Cl
→ 86, 75, 111, nt
COC(=O)c1ccc(CSc2nnc(SC(C)C(=O)c3ccc(F)cc3)s2)o1 (stereo not drawn)
→ 103, 95, nt, -7
Nc1c(N)c2ccccc2oc1=O
→ 89, 44, 112, -44
C=CCn1c(N)c(C(=O)N2CCCCC2)sc1=S
→ 105, 82, 96, -38
CCSc1nnc2n(Cc3ccc(CC)cc3)c(=O)c3sccc3n12
→ nt, nt, 98, 7
O=S1(=O)CCN(CC2CCCC2)CC1
→ nt, nt, 102, -2
Brc1ccc(-c2ccc(CNCCSc3nnnn3-c3ccccc3)o2)cc1
→ 93, 66, 105, 8
CCOC(=O)c1cnc2cc(-c3ccc(I)cc3)[nH]n2c1=O
→ 112, 96, 98, -3

# Quoted at random: 5 entries already listed, in no set order.
# Values in the order – Sa growth inh, Sa growth inh second temp, GIV Gai3 FP, HCMV NEC inh
COC(=O)c1ccc(CSc2nnc(SC(C)C(=O)c3ccc(F)cc3)s2)o1 (stereo not drawn)
→ 103, 95, nt, -7
O=C(Nc1ccc(-c2nc3ccccc3o2)cc1)c1ccccc1Cl
→ 86, 75, 111, nt
COc1ccc(-c2cc(C)nc3c(-c4ccc(OC)c(OC)c4)c(C)nn23)cc1
→ 108, 85, 108&104, -9&-38
C=CCn1c(N)c(C(=O)N2CCCCC2)sc1=S
→ 105, 82, 96, -38
O=S1(=O)CCN(CC2CCCC2)CC1
→ nt, nt, 102, -2

# The list continues:
# Values in the order – Sa growth inh, Sa growth inh second temp, GIV Gai3 FP, HCMV NEC inh
CCOc1ccccc1NC(=O)N1CCN(Cc2cc(=O)n3nc(-c4ccc(C)cc4)sc3n2)CC1
→ 100, 89, 104, nt
Cc1c(NC(=O)CCCN2C(=O)/C(=C/c3ccccc3)SC2=S)c(=O)n(-c2ccccc2)n1C
→ nt, nt, 102, -28
CC1(C)CC(=O)C2=C(C1)Nc1ccccc1NC2c1ccc2c(c1)OCO2 (stereo not drawn)
→ 96, 96, 101, 6
O=C1CCc2cc3c(cc2O1)OC(=O)CC3
→ 96, 93, nt, -4
CCOC(=O)c1c(C)oc2nc(C)nc(NCC3CCN(Cc4cccc(Cl)c4)CC3)c12
→ 91, 95, 106, nt
O=C1CC(N2CCN(c3ccccn3)CC2)C(=O)N1c1ccc2c(c1)OCO2 (stereo not drawn)
→ 101, 97, 104, -4
COc1ccccc1C(=O)NCCc1csc(-c2ccc(C(F)(F)F)cc2)n1
→ 104, 96, 109, nt
CCOc1ccc(/C=C2\SC(=S)N(CCC(=O)Nc3ccc(O)c(C(=O)O)c3)C2=O)cc1
→ nt, nt, 102, -44
Cc1cc(=O)n(Cc2ccccc2Cl)c2c1c(C)nn2-c1ccccc1
→ 76, 79, 98, nt
O=C(NCCc1ccc(Cl)cc1)C(Cc1ccccc1)NS(=O)(=O)c1cccc2cccnc12 (stereo not drawn)
→ nt, nt, 101, -29
